Compound activity deposited in PubChem by National Center for Advancing Translational Sciences (NCATS).
HPGD block: qHTS Assay for Inhibitors of HPGD (15-Hydroxyprostaglandin Dehydrogenase); 15-hydroxyprostaglandin dehydrogenase [NAD(+)] (Homo sapiens), P15428; purified HPGD, NADH fluorescence kinetic, PGE2 substrate; Potency, µM, for inactives: top-dose activity change, negative = inhibition, actives largely listed as inhibitors; hit rate 4.3% among 150,000; active = well fitted inhibition curve with a large enough effect (not every such curve was filed as active); inconclusive = small, poorly fitted or top-dose-only effect, or another doubt; inactive = no such curve, though single readings can be large or run the other way;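 further: top concentration of the series not given in the record; plate controls included wells without enzyme; inactives centre near -10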
Target sequence (P15428 whole entry, looked up): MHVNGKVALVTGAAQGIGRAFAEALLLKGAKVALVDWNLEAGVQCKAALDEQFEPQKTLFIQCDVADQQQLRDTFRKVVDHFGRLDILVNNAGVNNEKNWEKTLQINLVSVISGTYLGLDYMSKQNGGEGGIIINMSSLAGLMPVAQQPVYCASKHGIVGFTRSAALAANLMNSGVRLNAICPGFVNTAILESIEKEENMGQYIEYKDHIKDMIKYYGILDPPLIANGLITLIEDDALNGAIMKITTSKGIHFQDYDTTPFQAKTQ
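NADH formation kinetics: reaction with 30 uM PGE2 and 1 mM NAD+ (final), 20 nM enzyme, Tris-HCl pH 8 with Tween 20, after 15 min compound preincubation at room temperature. Fluorescence change, last versus first of five reads.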
Numbers without * were called inactive; ? = inconclusive; & = joins results of further samples. On the % scale 0 is the no-effect control and ±100 the full control effect; potency means the concentration at half of the fitted maximal effect.

SMILES | HPGD block
O=C(CCc1ccccc1)NCc1cccnc1 | -6.9%
CCOC(=O)c1ccc(N2C(=O)C3ON(c4ccccc4)C(c4ccco4)C3C2=O)cc1 (configuration not stated) | -7.9%
NC(=O)c1ccccc1 | -5.0%&-2.5%
COc1cc(S(=O)(=O)NCC2OCCc3ccccc32)ccc1-n1cnnn1 (configuration not stated) | -9.5%
O=C(Nc1ccccc1-c1ccccc1)c1ccco1 | 1.5%
COc1ccc(S(=O)(=O)C(C#N)c2nc3ccccc3nc2N2CCCC(C)C2)cc1 (configuration not stated) | -17.9%
COc1ccc(Nc2nc(-c3sc(N)nc3C)cs2)cc1 | -23.0%
CCCn1nnc(NC(=S)NC(=O)C(C)(C)C)n1 | -28.3%
COC(=O)c1ccc(OC(C)C(=O)c2ccc(C)cc2)cc1 (configuration not stated) | -13.3%
CCCCn1c(SCC(=O)OCC)nnc1-c1ccoc1C | -8.4%
CCN(CC)c1ccc(NC(=O)COc2ccc(C)cc2)cc1 | -17.1%
CN1CCC(N(C)C(=O)CCc2nc3ccccc3c(=O)[nH]2)CC1 | -7.6%
O=C(NCc1ccc2c(c1)OCO2)C(c1ccco1)N(C(=O)c1csnn1)c1ccccc1 (configuration not stated) | -15.6%
COc1ccccc1Cn1c(=O)[nH]c2cccnc21 | -2.0%
c1ccc2c(CN3CCN(Cc4c[nH]c5ccccc45)CC3)c[nH]c2c1 | -12.4%
Cc1ccccc1OCCNC(=O)CNC(=O)c1ccccc1O | ?
CCc1cc(/C(Cc2csc(C)n2)=N/O)c(O)cc1O | -22.5%
CC(=O)N1CCc2cc(S(=O)(=O)NC(C(=O)NCc3ccccc3)C(C)C)ccc21 (configuration not stated) | -6.3%
C=CCn1c(SCC(=O)c2ccc(CNC(C)=O)o2)nc2scc(C3CC3)c2c1=O | -16.2%
Cc1ccc(-c2nc3cnccn3c2Nc2ccc3c(c2)OCCO3)o1 | -23.2%
CN1CCC(=NNC(=O)C(=O)NC(C)(C)C)CC1 | 3.4%
COc1ccc2[nH]c(=O)c(CN(Cc3nnnn3Cc3ccccc3)CC3CCCO3)cc2c1 (configuration not stated) | -24.9%
CC(C)[C@H](Nc1ccc(S(=O)(=O)N2CCOCC2)cc1[N+](=O)[O-])C(=O)OCC(=O)N(C(C)C)C(C)C | -17.0%
CC(=O)N(C)c1ccc(NC(=O)/C=C/c2ccccc2Cl)cc1 | -8.7%
COC(=O)c1ccc(CSc2nnc(CS(=O)Cc3ccc(Br)cc3)n2-c2ccccc2)cc1 (configuration not stated) | -13.1%
COc1ccc(-c2nnc(SCC(=O)Oc3ccc(C)cc3)o2)cc1 | -24.3%
CS(=O)(=O)N1CCc2cc(C(=O)OCC(=O)c3ccccc3)ccc21 | -2.9%
N#CCCN1CCN(CCC#N)CC1 | -3.2%
C=CCn1c(Cc2cccs2)nnc1SCC(=O)NCc1ccco1 | -12.3%
CC(C)(C)c1ccc(OC(=O)c2cccnc2)cc1 | -23.6%
NC(=O)CCn1nc(-c2ccccc2)c2ccccc2c1=O | -7.4%
COc1ccccc1CN1CCC2(CC1)CCN(C(C)=O)CC2 | -7.3%
CC(C)OCCCNC(=O)CN1C(=O)/C(=C/c2ccccc2)Sc2ccccc21 | ?
Cc1cccc(OCC(=O)Nc2cccc3nsnc23)c1 | ?
N#Cc1c(C(F)(F)F)cc(-c2ccccc2)nc1SCc1nc(N)nc(N2CCOCC2)n1 | -14.9%
CCOC(=O)N1CCN(c2c(NCCCN(CC)CC)c(=O)c2=O)CC1 | -10.0%
O=C(c1cnn2c(C(F)(F)F)cc(-c3ccco3)nc12)N1CCCc2ccccc21 | -12.0%
Cc1ccc2cc(C#N)c(SCc3nnc(-c4ccccc4[N+](=O)[O-])o3)nc2c1 | ?
COc1ccc(CNC(=O)[C@H]2C[C@@H]2[C@H](NP(=O)(c2ccccc2)c2ccccc2)c2ccccc2)cc1OC | -6.6%
CCc1ccc2ncc(S(=O)(=O)c3ccc(C)c(C)c3)c(N3CCCC3)c2c1 | -21.1%
COCCNc1nc(=S)[nH]c2cc(OC)c(OC)cc12 | -6.7%
CN(C)c1ccc(N/C=C/C(=O)C(C)(C)C)cc1 | -16.1%
Cc1nc2ccccc2n1-c1nc(-c2ccco2)cc(C(F)(F)F)n1 | -16.8%
c1ccc(-n2nc3ccccc3n2)cc1 | ?
O=C1CC(N2CCN(c3ccccc3Cl)CC2)C(=O)N1c1ccccc1 (configuration not stated) | -12.8%
Cc1ccc2c(c1)N(CCC(=O)NCc1cccs1)C(=O)C(C)O2 (configuration not stated) | 0.2%
COc1ccc2nc(NC(=O)c3ccoc3C)sc2c1 | ?
Cc1ccccc1C(=O)NC(=S)NCCc1ccccc1 | -7.4%
CC1(C)Oc2ccc(/C=C/C(=O)N3CCOCC3)c(O)c2C(N2CCOCC2)C1O (configuration not stated) | ?
O=c1cc2c(nn1Cc1ccc(Cl)cc1)-c1ccccc1CC2 | ?
O=C(CCNS(=O)(=O)c1cccs1)NCc1ccccc1 | -5.1%
Oc1ccc2ccccc2c1CN1CCN(c2ccccc2F)CC1 | -26.4%
O=C(NCC1CCCO1)c1ccc2c(c1)C(=O)N(C1CCCCC1)C2=O (configuration not stated) | -10.8%
CN(C)c1ccc(/C=[N+](\[O-])C2N(c3ccccc3)C(=S)SC2(C)C)cc1 (configuration not stated) | -11.7%
CCC[C@@H]1C[C@@H](C(=O)N[C@H]([C@@H](C)O)[C@H]2O[C@H](SC)[C@H](O)[C@@H](O)C2O)N(C)C1 (some centres not stated) | -18.3%
CCCN1Cc2cccc(C(=O)NCc3ccccc3OC)c2C1=O | 0.8%
O=C(/C=C/c1ccco1)NCC1CCCO1 (configuration not stated) | ?
O=c1[nH]c2cc3c(cc2cc1C(c1nnnn1Cc1ccccc1)N1CCN2CCCC2C1)OCCO3 (configuration not stated) | ?
O=C(NC1CCCc2ccccc21)C1CCN(S(=O)(=O)c2ccccc2)CC1 (configuration not stated) | 2.9%
Nc1nc(-c2cccc(Br)c2)cs1 | ?

The list continues:
SMILES | HPGD block
c1cnc2ccc(C(c3nnnn3C3CCCCC3)N3CCN4CCCC4C3)cc2c1 (configuration not stated) | -0.7%
O=C(O)c1ccc(NS(=O)(=O)Cc2ccccc2)cc1 | -0.9%
C=CCn1c(COc2ccc(Cl)cc2)nnc1SCC(=O)Nc1ccc(S(N)(=O)=O)cc1 | -9.7%
O=C(O)CCCC(=O)N1CCN(c2nc(-c3ccccc3)c3ccccc3n2)CC1 | -23.0%
CCOc1ccccc1C(=O)N1CCN=C1SC | -0.9%
CCn1nnc(-c2ccccc2NS(=O)(=O)c2ccc(C(=O)OC)cc2)n1 | -6.6%
O=C(NCc1ccco1)c1cnn2c(C(F)(F)F)cc(-c3cccs3)nc12 | ?
COC(=O)c1nc(-c2ccc(C)cc2)oc1N(C)C | ?
CC1CCc2nn(CC(=O)Nc3ccc(F)cc3F)cc2C1 (configuration not stated) | 3.6%
O=c1cc(-c2ccccc2)c2ccccc2[nH]1 | ?
CCCCCn1c(SCC(=O)c2ccccc2)nc2cc(C(=O)NCc3ccco3)ccc2c1=O | -11.7%
CCCOc1ccc(CNC(=S)NCc2ccc(OC(C)C)cc2)cc1 | -5.0%

Of the compounds above, these contain two or more sulfur atoms:
SMILES | HPGD block
COc1ccc(Nc2nc(-c3sc(N)nc3C)cs2)cc1 | -23.0%
C=CCn1c(SCC(=O)c2ccc(CNC(C)=O)o2)nc2scc(C3CC3)c2c1=O | -16.2%
COC(=O)c1ccc(CSc2nnc(CS(=O)Cc3ccc(Br)cc3)n2-c2ccccc2)cc1 (configuration not stated) | -13.1%
C=CCn1c(Cc2cccs2)nnc1SCC(=O)NCc1ccco1 | -12.3%
O=C(CCNS(=O)(=O)c1cccs1)NCc1ccccc1 | -5.1%
CN(C)c1ccc(/C=[N+](\[O-])C2N(c3ccccc3)C(=S)SC2(C)C)cc1 (configuration not stated) | -11.7%
C=CCn1c(COc2ccc(Cl)cc2)nnc1SCC(=O)Nc1ccc(S(N)(=O)=O)cc1 | -9.7%

Back to the main list, repeating the 7 entries before the break.
SMILES | HPGD block
CCn1nnc(-c2ccccc2NS(=O)(=O)c2ccc(C(=O)OC)cc2)n1 | -6.6%
O=C(NCc1ccco1)c1cnn2c(C(F)(F)F)cc(-c3cccs3)nc12 | ?
COC(=O)c1nc(-c2ccc(C)cc2)oc1N(C)C | ?
CC1CCc2nn(CC(=O)Nc3ccc(F)cc3F)cc2C1 (configuration not stated) | 3.6%
O=c1cc(-c2ccccc2)c2ccccc2[nH]1 | ?
CCCCCn1c(SCC(=O)c2ccccc2)nc2cc(C(=O)NCc3ccco3)ccc2c1=O | -11.7%
CCCOc1ccc(CNC(=S)NCc2ccc(OC(C)C)cc2)cc1 | -5.0%
COc1ccc(Nc2nc(C)cc(=O)[nH]2)cc1 | 1.1%
CCOc1ccc(N2C(=O)CC(SC(=NC)Nc3cccc(F)c3)C2=O)cc1 (configuration not stated) | -5.7%
COc1ccccc1N(C(=O)c1snc(C(N)=O)c1N)C(C(=O)NC1CCCC1)c1ccco1 (configuration not stated) | ?
CCN(CC)c1nc(Nc2ccccc2)nc(Oc2ccc(=O)n(C)n2)n1 | -17.5%
CCc1c(C(=O)N/N=C/c2ccc(C)o2)csc1C | ?
Cc1ccc(C)c(NC(=O)c2ccccc2Sc2ccc([N+](=O)[O-])cc2Cl)c1 | -2.9%
O=C(CCS(=O)(=O)c1ccc(Br)cc1)Nc1ccc2c(c1)OCO2 | -7.1%
Cc1noc(C)c1S(=O)(=O)Nc1ccc(C(=O)N2CCN(c3ccc(Cl)cc3)CC2)cc1 | -7.9%
CCOC(=O)CSc1nc2ccccc2c(=O)n1CC1COc2ccccc2O1 (configuration not stated) | -14.8%
C=C1Cn2c(nnc2-c2ccc(Cl)cc2)S1 | -24.1%
CCC(C(=O)c1ccccc1)N(C(=O)c1ccccc1Cl)N1C(=O)C2C3C=CC(C3)C2C1=O (configuration not stated) | -19.9%
CCC(CC)c1nnc(NC(=O)Oc2ccccc2)s1 | -25.0%
CCc1ccc(NC2=NCC(=O)N2c2ccc3c(c2)OCCO3)cc1 | 5.4%
O=C(CN1CCN(S(=O)(=O)c2ccc(F)cc2)CC1)Nc1ccc2c(c1)OCCO2 | -9.9%
COc1ccc(C(=O)NCCCc2nc3ccccc3n2Cc2cc(C)ccc2C)cc1OC | -3.1%
O=C(Cc1ccccc1)NO | -0.7%
COc1cc(NC(=S)N2CCN(C(c3ccccc3)c3ccccc3)CC2)cc(OC)c1 | -18.4%
CC(C)CC(=O)Nc1ccc(N2CCN(S(C)(=O)=O)CC2)cc1 | -5.2%
O=C(NC(=S)Nc1cccc(Cl)c1N1CCCC1)c1ccc(-c2cccc([N+](=O)[O-])c2)o1 | -23.9%
CNCC(O)c1ccc(O)c(O)c1 (configuration not stated) | -3.8%&3.9%
CS(=O)(=O)CCC(C(=O)n1nnc2ccccc21)N1C(=O)c2ccccc2C1=O (configuration not stated) | 0.3%
CC(Oc1ccccc1)C(=O)NC1CCN(Cc2ccccc2)CC1 (configuration not stated) | -4.9%
Cc1cccc(CS(=O)(=O)Cc2ccc(C(=O)O)o2)c1 | -2.8%
CCCCNC(=O)C(c1ccc(OCC(=O)OC)c(C(=O)OC)c1)N(CCC1=CCCCC1)C(=O)CCCCCN1C(=O)NC(c2ccc(-c3ccccc3)cc2)C(C(=O)OCc2ccccc2)=C1C (configuration not stated) | -5.8%
Cc1ccc2c(C(=O)CN3CCN(c4ccccc4)CC3)c(C)[nH]c2c1 | -13.8%
C=CCNC(=S)N/N=C/c1ccc(-c2cc(Cl)ccc2Cl)o1 | ?
Cc1c(C(=O)O)oc2ccc(S(=O)(=O)N3CCCCC3C(=O)O)cc12 (configuration not stated) | -7.4%
O=C(c1cnc2sccn2c1=O)N1CCc2ccccc2C1 | ?
O=C(Nc1ccccc1N1CCCC1)c1cccnc1 | -0.8%
CCOC(=O)c1[nH]c(C)c(C(=O)OCC(=O)N2CCc3ccccc32)c1C | 1.6%
Cn1nc(C(C)(C)C)cc1C(=O)Nc1nc2c(s1)C(=O)CC(C)(C)C2 | -10.7%
CCC(=O)NNc1ncnc2ccccc12 | -3.5%
CCOc1ccccc1C(=O)N1CCC(C(=O)c2ccc(F)cc2)CC1 | -1.8%
COc1cc(-n2c(=O)c3ccccc3n(Cc3cc(=O)n4ccccc4n3)c2=O)cc(OC)c1OC | ?
O=C(CCCOc1ccccc1)N1CCN(c2ccc(F)cc2)CC1 | -11.6%
O=C(CSc1nnc(-c2ccncc2)o1)NCc1ccc(Cl)cc1 | -1.7%
COC(=O)N1[C@H](C)C=C[C@]1(Cc1ccccc1)C(=O)NCc1ccccn1 | -6.5%
Cc1ccc(N(C(=O)C2CCC(=O)N2)C2(C(=O)NC3CCCCC3)CCCCC2)cc1 (configuration not stated) | -3.6%
NC(N)=NC(N)=Nc1c(F)c(F)c(F)c(F)c1F | -6.8%
CCSC(C)CC1CC(=O)CC(=O)C1 (configuration not stated) | -7.2%
CCOc1nc(NC2CCCCC2)nc(NC(C)(C)C)n1 | 0.9%
C/C(=N\NC(=O)c1c(Cl)c(C)nn1C)c1ccc(NC(=O)COc2ccc(Cl)cc2C)cc1 | -7.1%
CCOCc1nnc(NS(C)(=O)=O)s1 | -14.2%
Cc1onc(-c2ccccc2Cl)c1-c1nc(-c2ccncc2)no1 | -24.8%
CC(C)CCNC(=O)C(c1ccc(O)cc1)N(Cc1cccs1)C(=O)C1COc2ccccc2O1 (configuration not stated) | -3.6%
COc1ccc(N2CCN(C(=O)CSc3nnc(Cn4nnc5ccccc54)n3C)CC2)cc1 | -14.7%
Cn1nnnc1SCc1cccc(CSc2nnnn2C)n1 | -18.8%
O=C(Nc1ccc(Cc2ccncc2)cc1)c1ccc(S(=O)(=O)N2CCOCC2)cc1 | -6.2%

These rows are one share of the data (hit frequency here may not be typical).
